Compound activity as filed in PubChem BioAssay.
hNpr1 antagonist = blocks ANP-stimulated signaling of human Npr1 receptor | HEK293 hNpr1 GloSensor cGMP, ANP-stimulated luminescence | Potency, µM (doses to about 46.3 µM), without a hit: at the top dose activity change, negative = inhibition, usual class: inhibitors | 76,000 compounds, 1.6% hits | AID 1347048; active = well fitted inhibition curve with a large enough effect; inconclusive = small, poorly fitted or top-dose-only effect; inactive = no such curve, though single readings can be large or run the other way;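 further: nearly all actives have a fitted effect of over 60% in size; nearly all hits also lower the signal before the agonist is added; a reference antagonist and vehicle were the controls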
Target sequence (P16066 whole entry, looked up): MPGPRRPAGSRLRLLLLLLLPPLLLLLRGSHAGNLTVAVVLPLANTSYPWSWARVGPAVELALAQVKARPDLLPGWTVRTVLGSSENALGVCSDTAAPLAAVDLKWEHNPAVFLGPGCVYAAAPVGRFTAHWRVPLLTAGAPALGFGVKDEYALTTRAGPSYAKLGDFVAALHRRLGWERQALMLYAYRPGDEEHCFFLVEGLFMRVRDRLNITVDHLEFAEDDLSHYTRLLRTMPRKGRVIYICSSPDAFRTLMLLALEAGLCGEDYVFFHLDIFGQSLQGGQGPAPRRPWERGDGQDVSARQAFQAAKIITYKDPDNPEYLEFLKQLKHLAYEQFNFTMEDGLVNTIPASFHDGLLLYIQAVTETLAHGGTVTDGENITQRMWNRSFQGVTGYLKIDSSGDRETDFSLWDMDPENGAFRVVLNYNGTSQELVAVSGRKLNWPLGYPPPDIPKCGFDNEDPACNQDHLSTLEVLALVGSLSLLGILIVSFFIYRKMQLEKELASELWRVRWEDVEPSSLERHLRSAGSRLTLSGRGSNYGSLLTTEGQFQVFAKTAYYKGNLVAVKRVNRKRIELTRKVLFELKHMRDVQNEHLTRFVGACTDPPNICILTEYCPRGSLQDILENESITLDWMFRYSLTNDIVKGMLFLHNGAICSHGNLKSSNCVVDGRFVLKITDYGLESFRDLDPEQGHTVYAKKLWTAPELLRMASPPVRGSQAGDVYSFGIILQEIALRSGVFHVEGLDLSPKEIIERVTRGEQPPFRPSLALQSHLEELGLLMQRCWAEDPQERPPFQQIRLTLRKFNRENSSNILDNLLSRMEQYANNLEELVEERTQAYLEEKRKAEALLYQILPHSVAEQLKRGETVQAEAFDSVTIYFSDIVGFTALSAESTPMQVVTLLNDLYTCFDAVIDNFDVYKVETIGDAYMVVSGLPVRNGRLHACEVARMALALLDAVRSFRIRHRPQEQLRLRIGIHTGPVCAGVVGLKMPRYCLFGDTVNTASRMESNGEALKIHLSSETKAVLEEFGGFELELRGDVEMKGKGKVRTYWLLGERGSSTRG
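HEK293 cells stably expressing human Npr1 and cGMP GloSensor pGS-40F, loaded 2 h with 2% GloSensor reagent, given compound 30 min at room temperature. Luminescence read before and 20 min after 0.1 nM hNppA.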
* hit, by the source's call; ? = inconclusive; [ ] = another dose, or the depositor's remark. On the % scale 0 is the no-effect control and ±100 the full control effect; potency means the concentration at half of the fitted maximal effect.

SMILES	hNpr1 antagonist
O=C(c1nnc(CNc2ccccc2)n1-c1ccccc1)N1CCC[C@@H]1C(c1ccccc1)c1ccccc1	-30%
Cc1noc([C@@H]2CN(C(=O)COc3ccc(Cl)cc3)C[C@H]2CO)n1	-1%
O=C1NC[C@H]2CN(CCCc3ccccc3)CCN12	-2%[70.6 µM]
Cc1ccc(NC(=O)CC2=C3CCCCC3NC2=O)cc1 (stereo unspecified)	7%
COc1cccc(C(=O)NCCn2ccn3nc(-c4ccc(F)cc4)cc3c2=O)c1OC	-15%
Cc1ccc(CN2C[C@@H](CO)[C@H](c3ccccn3)C2)nc1	-2%
OCC1CNCCC12CCN(Cc1ccc3ccccc3c1)CC2 (stereo unspecified)	-4%
O=C(NC1CCCC1)c1cc2c(s1)CCN(C(=O)c1ccc(F)cc1)C2	-6%
O=C(CC1CCCN(c2cn[nH]c(=O)c2)C1)NCCc1ccccc1 (stereo unspecified)	18%
Cc1nn(C)cc1C(=O)N1C[C@@H](CO)[C@H](c2ccncc2)C1	2%
Cc1cn2nc(C(=O)N3CCC(NC(=O)C4(c5ccccc5)CC4)CC3)cc2c(=O)[nH]1	-1%
O=C(c1ccsc1)N1CCCC(CN2CCCC2)CC1 (stereo unspecified)	-2%
O=C(N1CC(Oc2ccc(-c3noc(-c4ccccc4)n3)cc2)C1)C1(c2ccccc2)CC1	2%
O=C1Nc2ccccc2CC12CCN(Cc1cncs1)C2 (stereo unspecified)	3%[70.6 µM]
COc1ccc(C(=O)N2CCC(Cn3c(C)cnc3C3CCC3)CC2)c(OC)c1	-3%
COc1ccc(N2CCN(c3nc(C(=O)NC4CCCCCC4)cs3)CC2)cc1	?
COc1ccccc1Nc1ncc2c(n1)CN(C(=O)c1cccc(C#N)c1)CCN2	?
CC(=O)Nc1cc(C(=O)NCc2ccccc2C)c2ccc(C)nc2c1	-1%
Cc1ccc(C)c(CCNC(=O)[C@H]2CNC[C@H](C(=O)N3CCOCC3)C2)c1	3%
COc1ccc(-c2noc(CC3CCN(C(=O)Cc4cccc(C)c4)CC3)n2)cc1	13µM*
c1ccc(CCCN2Cc3[nH]cnc3C[C@H]2c2nc(-c3cnccn3)no2)cc1	1%[70.6 µM]
COc1ccc(CCC(=O)N2CCOCCNC(=O)CC2)cc1	3%
COc1ccc(Cl)cc1-c1cc2c(cn1)CN(Cc1cccnc1)CCN2	-6%[70.6 µM]
O=C(C(=O)N1CCC(c2cc(Cc3ccccc3)[nH]n2)CC1)c1cccnc1	-14%
CNC(=O)[C@@H]1CN(S(=O)(=O)c2c(C)noc2C)C[C@H]1c1n[nH]c(C)n1	-1%

Filtered by structure: the compounds so far containing fluorine (2)
SMILES	hNpr1 antagonist
COc1cccc(C(=O)NCCn2ccn3nc(-c4ccc(F)cc4)cc3c2=O)c1OC	-15%
O=C(NC1CCCC1)c1cc2c(s1)CCN(C(=O)c1ccc(F)cc1)C2	-6%

Next structures
SMILES	hNpr1 antagonist
CC(C)(O)c1cc(CC2(NCc3ccc(OC(F)(F)F)cc3)COC2)no1	3%[70.6 µM]
COc1ccccc1S(=O)(=O)N1C[C@@H]2C(CN(C)C)[C@@H]2C1 (stereo partly specified)	0%
COc1cccc(CCC(=O)N2CCN(C(=O)c3nnn4c3COC(c3ccccc3)C4)CC2)c1 (stereo unspecified)	-20%
CCc1nc(-c2ccc(OC3CCN(CCc4ccccc4)C3)cc2)no1 (stereo unspecified)	-12%
CN(C)C(=O)C1CCc2sc(C(=O)N3CCCC3)cc2C1 (stereo unspecified)	5%
O=C(N1CCC(N[S+](=O)([O-])Cc2ccccc2)CC1)N1CC2CC(C1)[C@H]1CCCC(=O)N1C2 (stereo partly specified)	5%
Cc1ccccc1-c1ccnc(-c2nnc(C)n2C(C)C)c1	-3%[70.6 µM]
Cc1ccsc1[C@@H]1CCN(C(=O)c2ccccc2-c2ncc[nH]2)C[C@H]1O	-2%
Cc1ccc(S(=O)(=O)N2CCC(CC(=O)NCc3ccccc3)C2)cc1F (stereo unspecified)	5%
CNC(=O)N1CCC(C2CCN(S(=O)(=O)c3ccc(C)c(F)c3)C2)CC1 (stereo unspecified)	5%
CCC(C)NC(=O)N1CCN(Cc2c(C)noc2C)CC1 (stereo unspecified)	2%
OCc1cc2n(n1)CCCN(Cc1cnc(SCc3ccccc3)nc1)C2	?
O=C(c1cccn1C1CC1)N1CCC(CO)(CN2CCCC2)CC1	2%
CNC(=O)C1(C)CN(Cc2ccccc2)Cc2ccc(Nc3ccccc3)nc21 (stereo unspecified)	?
Cn1cccc1CN1CCC2(CC1)CN[S+](=O)([O-])c1ccccc1N2	0%
c1ccc2c(CN3CCC[C@H]3c3nc(-c4ccnc(N5CCOCC5)c4)no3)c[nH]c2c1	-17%[70.6 µM]
COc1ccc(CCC(=O)N[C@@H]2CN(c3ccncn3)C[C@H]2CO)cc1	-17%
O=c1[nH]n(CCn2cc(C3CCCNC3)nn2)c(=O)c2ccccc12 (stereo unspecified)	4%
CCn1cc(-c2ccc(C)cc2)cc1C(=O)NCCN1CCOCC1	-7%
Cc1ccccc1-c1cc(C(=O)N2CCC3(CC2)CC(O)CCO3)[nH]n1 (stereo unspecified)	1%
COCc1noc([C@@H]2CN(C(=O)c3cccc(Cl)c3)C[C@H]2CO)n1	9%
COCC(=O)N[C@H]1CO[C@H]2[C@@H]1OC[C@@H]2Nc1nccc(C(C)(C)C)n1	2%[70.6 µM]
COc1ccc(C2(C(=O)NC3CCCc4c3[nH]c3ccccc43)CCOCC2)cc1 (stereo unspecified)	?
Oc1ccc(-c2cc3c(cn2)CN(Cc2ccccc2)CCN3)cc1F	-2%[70.6 µM]
O=C(NCc1cccc(F)c1)c1cnc2c(c1)N(C(=O)Cc1cccc(C(F)(F)F)c1)CCC2	3%
(cont.)
SMILES	hNpr1 antagonist
COc1ccc(C(C(=O)O)N2CCN(c3nc(C)cnc3C)CC2)cc1 (stereo unspecified)	-2%
CCOc1ccccc1NC(=O)CN1C(=O)NC(c2ccc(Cl)cc2)C2=C1COC2=O (stereo unspecified)	-2%
OC1(CNCc2cccnc2-n2cncn2)CCNC1 (stereo unspecified)	-4%
CC(=O)N1CCCN(CC[C@H]2CN(S(=O)(=O)c3ccccc3)CC[C@H]2CC(=O)O)CC1	3%
O=C(c1ccccc1Cl)N1CCc2nc(-c3ccc(Cl)cc3)nc(-c3ccccc3)c2C1	-2%
O=C(O)CCC(=O)N1CC[C@H]2NC(=O)N(c3ccc(Oc4ccccc4)cc3)C(=O)[C@H]21	1%[70.6 µM]
CN(C(=O)[C@@H]1C[C@H](c2cccc(C(F)(F)F)c2)N(Cc2cnn(C)c2)C1)c1ccccc1	-24%
Cc1cccc(OCC(=O)N2CCN(C(=O)c3nnn4c3COC(c3ccc(Cl)cc3)C4)CC2)c1 (stereo unspecified)	1%
COCCOc1cc(=O)n2c(c1C(=O)NCc1ccc(OC)cc1)CCOCC2	-7%
Cn1ccnc1CN[C@@H]1CO[C@H](CNC(=O)c2ccc(F)cc2)[C@H]1O	-2%[70.6 µM]
O=[S+]([O-])(c1ccccc1)N1CC2(COCCN(Cc3ccncc3)C2)C1	-5%[70.6 µM]
COCC(=O)Nc1ccc(-c2noc([C@@H]3CCCN3Cc3cc4ccccc4o3)n2)cn1	-3%[70.6 µM]
CCn1nc(C)c(C(=O)N[C@H]2CCOC[C@H]2C2CCOCC2)c1C	2%
Cc1noc(C)c1S(=O)(=O)N1CCC(c2noc(-c3cnccn3)n2)C1 (stereo unspecified)	0%
COC(=O)[C@]1(C)C[C@H](C(=O)NC(C)(C)CO)[C@H](c2ccccc2Cl)N1C	9%
COc1ccc(C2(C(=O)N3[C@@H]4CC[C@H]3CC(NC(=O)c3cnc(C)cn3)C4)CC2)cc1 (stereo partly specified)	-1%
N#Cc1cccc(C(=O)N2CCC(n3cc(-c4nc(-c5ccccc5)no4)nn3)C2)c1 (stereo unspecified)	-27%
COCc1cc(C[C@@H]2C[C@H](NCc3cccnc3)C2(C)C)no1	0%[70.6 µM]
Cc1ccc(S(=O)(=O)N2CCC3(CC2)SCC(=O)N3Cc2ccco2)cc1	-18%
Clc1ccc(CNc2ncncc2-c2nc(-c3ccccc3)no2)cc1	4%
COCCO[C@H]1C(=O)N(C2CCN(S(=O)(=O)c3cn(C)cn3)CC2)[C@H]1c1ccncc1	-1%
CCCN(CC1CCOC1)C(=O)Nc1ccc(OCC)cc1 (stereo unspecified)	-1%
CC(=O)NC[C@H]1O[C@@H](CO)[C@@H](O)[C@H]1N1CCc2ccccc2C1	1%[70.6 µM]
CN(C)[C@H]1CCCCN(C(=O)CC2CCN(Cc3ccccc3)CC2)C1	0%
O=C(Cn1nc2c(cc1=O)CCCC2)NC1CC1	-2%
Later entries.
SMILES	hNpr1 antagonist
C[C@@H]1CN(C(=O)c2ccc(=O)n(C)c2)CC[C@@]1(O)C1CCOCC1	7%
COc1ccc2nc3n(c2c1)[C@@H](CNC(=O)c1ccccn1)COC3	5%[70.6 µM]
COc1ccc(S(=O)(=O)N2CCc3c(C(=O)NCCN(C)C)cccc32)cc1	-17%
Cc1noc(-c2ccn3c(CNC(=O)c4nccc5ccccc45)nnc3c2)n1	-11%
CCOC(=O)C1(Cc2ccc(OC)cc2)CCNCC1	7%
O=C(COc1ccccc1)N1CCCC2(C1)Nc1cccnc1NC2=NCc1ccccc1 (stereo unspecified)	3%
CCCC(=O)NC1CCN(c2cnn(CC3CC3)c(=O)c2)CC1	6%
COc1ccc(C(=O)N[C@@H]2CCC[C@@H]2C(=O)N2CCN(c3ccccn3)CC2)cn1	-7%
CC1CCCCN1C(=O)c1cnc(Cc2c(Cl)cccc2Cl)[nH]c1=O (stereo unspecified)	13%
O=C(c1ccccc1)N1CCC2(CC1)NCCc1c2[nH]c2ccccc12	0%
COc1ccc(C(=O)N2CCC3(CC2)NC(=O)N(Cc2ccc(F)cc2)C3=O)cc1	?
Cc1noc(-c2ccc(OC3CN(S(=O)(=O)c4cn(C)cn4)C3)cc2)n1	-8%
CN1CCN(c2nc3c(c(=O)[nH]2)CCN(Cc2ccccc2Br)CC3)CC1	-1%
Cc1c(-c2ccccc2F)[nH]c2ccc(CNS(=O)(=O)C3CC3)cc12	?
O=C(CCCc1ccccc1)N1CCN(c2cc(-c3ccccc3)[nH]n2)CC1	0%
CNC(=O)[C@@H](c1ccccc1F)N1CCC[C@H]1C(=O)NCCOC	-2%[70.6 µM]
O=C(O)COc1ccc(-c2nccc3c2C(=O)N(Cc2cccc(C(F)(F)F)c2)CC(COc2cccnc2)O3)cc1 (stereo unspecified)	3%
CC(C)CC(=O)NC(C(=O)N1CCCCC1)C1CCN(C(=O)c2ccc(Cl)cc2)CC1 (stereo unspecified)	-2%
Cc1noc(-c2cn(C3CCN(C(=O)c4ccc(C#N)cc4)CC3)nn2)n1	0%
Cc1nn2c(c1-c1ccccc1Oc1ccccc1)N(Cc1ccc(OCC(=O)O)cc1)CCC2	-4%
COCc1cc(C[C@@H]2CC[C@H](O)[C@@H](CNCc3ccccc3O)O2)no1	-6%[70.6 µM]
CC(C)N1C(=O)C2(CCCC2)C1C(=O)NCCN1CCC(Cc2ccccc2)CC1 (stereo unspecified)	-5%
CC(C)c1noc(-c2ccc(N(C)CC(O)c3ccccc3)nc2)n1 (stereo unspecified)	?
CN1C[C@H]2CN(Cc3ccc(C(=O)O)cc3)CCN2C1=O	-2%[70.6 µM]
CC(=O)N1CC2(Cc3ccccc31)CN([S+](=O)([O-])c1ccc(C)cc1)C2	1%

Reprinted from the part before: 6 compounds, then new ones.
SMILES	hNpr1 antagonist
Cc1nn2c(c1-c1ccccc1Oc1ccccc1)N(Cc1ccc(OCC(=O)O)cc1)CCC2	-4%
COCc1cc(C[C@@H]2CC[C@H](O)[C@@H](CNCc3ccccc3O)O2)no1	-6%[70.6 µM]
CC(C)N1C(=O)C2(CCCC2)C1C(=O)NCCN1CCC(Cc2ccccc2)CC1 (stereo unspecified)	-5%
CC(C)c1noc(-c2ccc(N(C)CC(O)c3ccccc3)nc2)n1 (stereo unspecified)	?
CN1C[C@H]2CN(Cc3ccc(C(=O)O)cc3)CCN2C1=O	-2%[70.6 µM]
CC(=O)N1CC2(Cc3ccccc31)CN([S+](=O)([O-])c1ccc(C)cc1)C2	1%
Cc1ccc(-n2nc3n(c2=O)CCN(C(=O)Nc2ccccc2)C3)cc1	-19%[70.6 µM]
O=C(Cc1ccsc1)Nc1cccc(-c2nnc3n2CCCC3)c1	5%
O=C(Cc1c[nH]c2ncc(-c3cccnc3)cc12)NC1CCC1	10%[70.6 µM]
CC(C)CCN1CCNC(=O)C1CC(=O)N(Cc1nccs1)C1CC1 (stereo unspecified)	-4%
O=C(C[C@@H]1O[C@H](CNCc2cccc(Cl)c2)[C@@H](O)[C@H]1O)N1CCN(c2ccc(F)cc2)CC1	-1%
CCCNC(=O)N1CCC(N2C(=O)[C@H](OC)[C@@H]2c2ccncc2)CC1	4%
O=C(CN1CCCCCC1=O)NC1CCCc2nc(-c3cccnc3)ncc21 (stereo unspecified)	3%
O=C(c1cccc2[nH]ccc12)N1C[C@@H](CO)[C@H](c2ccccn2)C1	0%
O=C(Nc1cccc(-c2ccc(N3CCCC3)nn2)c1)c1c(F)cccc1F	-18%

Reformatted comma-delimited: entries from further up.
mol,hNpr1 antagonist
CC(C)CCN1CCNC(=O)C1CC(=O)N(Cc1nccs1)C1CC1 (stereo unspecified),-4%
O=C(C[C@@H]1O[C@H](CNCc2cccc(Cl)c2)[C@@H](O)[C@H]1O)N1CCN(c2ccc(F)cc2)CC1,-1%
CCCNC(=O)N1CCC(N2C(=O)[C@H](OC)[C@@H]2c2ccncc2)CC1,4%

Only part of the results is shown; count on the stated rates, not on these rows.
